# Screens: PubChem, ICCB-Longwood Screening Facility, Harvard Medical School
# Ab BasE inh = blocks the Acinetobacter baumannii siderophore enzyme BasE. purified BasE, fluorescence polarization binding displacement. inhibition, % (no concentration beside the values). 84,000 tested, 0.1% active;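 active means both replicates above 25% with normal brightness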;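 further: 0% = negative plate control signal and 100% = positive plate control signal; stock transfer was 100 nL into about 30 µL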
# LANA-nucl inh = inhibitors of KSHV LANA binding to nucleosomes; FITC-LANA1-23 / chicken nucleosome fluorescence polarization; stronger effect = lower value; 51,000 tested, 0.3% active; z-score (test concentration not listed);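 active means both repeat wells score below -2 in polarization z-score versus plate sample wells, excluding overly bright wells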;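 further: 100 nL library stock added to about 30 µL; numbers are from one replicate; some results filed as inactive read as strong as hits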
#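 Assay system: FITC-LANA peptide and chicken nucleosomes; input: 240 nM purified chicken nucleosomes (480 nM peptide binding sites), final; also added: 50 nM FITC-LANA1-23 probe; medium: TEN-BT buffer, pH 7.5; doses: pin-transferred compound, 100 nL; times: 10–45 min, room temperature; technique: fluorescence polarization; replication: duplicates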
# * marks the source's active call; other numbers are inactive results; · = no result given. Only part of the results is shown (hit frequency here may not be typical).
(1) Cc1ccc(NS(=O)(=O)c2ccccc2)c(NS(=O)(=O)c2ccccc2)c1
(2) COC(=O)c1ccc(NC(=O)CSC2=NC(=O)CC(=O)N2)cc1
(3) CC(C)(C)c1nnc2sc(SCC(=O)NCc3ccco3)nn2c1=O
(4) COc1ccc(C(=O)NCCSc2ccccc2C)cc1
(5) Cc1sc(-n2c(C)cc(/C=C(\C#N)C(=O)NCc3ccco3)c2C)c(C#N)c1C
(6) S=C1N[C@H]2CCCC[C@@H]2N1

screen / no.,1,2,3,4,5,6
Ab BasE inh,0.5,-1.0,-10,0.4,-3.1,1.4
LANA-nucl inh,·,0.063,·,-1.5,1.2,0.89

# Five structures out of the list, sorted by count of non-hydrogen atoms, ascending.
(6) S=C1N[C@H]2CCCC[C@@H]2N1
(4) COc1ccc(C(=O)NCCSc2ccccc2C)cc1
(2) COC(=O)c1ccc(NC(=O)CSC2=NC(=O)CC(=O)N2)cc1
(3) CC(C)(C)c1nnc2sc(SCC(=O)NCc3ccco3)nn2c1=O
(5) Cc1sc(-n2c(C)cc(/C=C(\C#N)C(=O)NCc3ccco3)c2C)c(C#N)c1C

screen / no.,6,4,2,3,5
Ab BasE inh,1.4,0.4,-1.0,-10,-3.1
LANA-nucl inh,0.89,-1.5,0.063,·,1.2

# Later entries
(7) CCOC(=O)c1ccc(Nc2nc3ccccc3n3cnnc23)cc1
(8) CC1=C(/C=C/C(C)=N\NC(=O)c2ccncc2)C(C)(C)CCC1
(9) CCCOC(=O)C(N)c1ccccc1 (stereo unspecified)
(10) Cc1ccc(N2C(=O)N(CC(=O)N3CCC(C)CC3)c3ccccc3S2(=O)=O)cc1
(11) Cc1[nH]c2ccc(-c3nnc(SCC(=O)N4CCc5ccccc54)o3)cc2c1C
(12) O=C(O)CCN1CCN(c2cccc(Cl)c2)CC1

screen / no.,7,8,9,10,11,12
Ab BasE inh,-0.7,5.0,0.5,0.7,0.8,1.0
LANA-nucl inh,-1.2,-1.5,0.19,0.44,0.55,-0.1

(13) CC1CN(CC(=O)Nc2ccc(S(N)(=O)=O)cc2)CC(C)O1 (stereo unspecified)
(14) Nc1c(C(=O)NC2CC2)sc2nc(-c3ccncc3)ccc12
(15) CC(C)=CC(=O)Nc1nc(C)c(C)s1
(16) C=CCn1c(N)c(-c2nc3ccccc3[nH]2)sc1=S
(17) O=S(=O)(Nc1cccc(-c2ccc(N3CCCCC3)nn2)c1)c1ccc2c(c1)OCCO2
(18) CN(CCCc1ccccc1)CCc1ccccn1

screen / no.,13,14,15,16,17,18
Ab BasE inh,1.7,5.8,0.1,-3.5,0.3,-1.4
LANA-nucl inh,-0.69,-1.5,-0.39,-0.64,-0.49,0.68

(19) C=CCN1CCN(C(=O)C2CC2)CC1
(20) COC(=O)c1c(C)[nH]c(-c2csc(N)n2)c1C
(21) COc1cc(S(=O)(=O)N2CCN(c3ccccc3F)CC2)c(OC)cc1Cl
(22) Cc1ccc(C)n1Cc1cccs1
(23) COc1ccc(CSc2nc3ccccc3n2CCC#N)cc1F
(24) O=c1[nH][nH]c(=S)n1CCc1ccccc1

screen / no.,19,20,21,22,23,24
Ab BasE inh,0.4,3.0,0.5,1.5,-4.2,-3.5
LANA-nucl inh,0.75,·,-0.67,·,·,·

(25) Cc1ccc(CN2C3CCCC2CC(NC(=O)Nc2ccc(C#N)cc2)C3)cc1 (stereo unspecified)
(26) CCOC(=O)/C(C#N)=C/c1ccc(OC(=O)c2nn(C)cc2Br)cc1
(27) COc1ccc(-c2nn(C)c(=O)c3ccccc23)cc1CNC(=O)c1ccco1
(28) Cc1ccc(C2SCC(=O)N2Cc2cn3ccsc3n2)o1 (stereo unspecified)
(29) Cc1cc(C)cc(NC(=S)NC2CCCCC2)c1
(30) C=CCNC(=O)CC1Nc2ccccc2NC1=O (stereo unspecified)

screen / no.,25,26,27,28,29,30
Ab BasE inh,-5.0,-0.1,-7.6,1.9,0.2,0.1
LANA-nucl inh,-0.77,0.64,·,·,·,1.4

(31) CC1=CC(=O)C(N(C)C2CCS(=O)(=O)C2)=CC1=O (stereo unspecified)
(32) COc1ccc(N2CCN(C(=O)c3nn(-c4ccccc4)nc3C)CC2)cc1
(33) CN(Cc1ccccc1)C(=O)c1cc(-c2ccccc2O)no1
(34) C=CCN1C(=O)/C(=C/c2cc(C)n(CCOC)c2C)C(=O)NC1=S
(35) O=c1cc(-c2ccccc2)c2cc3c(cc2[nH]1)OCCO3
(36) COc1cccc(NCc2nnc(-c3ccccc3)o2)c1

screen / no.,31,32,33,34,35,36
Ab BasE inh,-6.0,1.9,-1.6,0.4,0.0,-1.3
LANA-nucl inh,·,·,-0.55,·,·,-0.3

(37) O=C(O)COc1ccc(/C=C2\COc3ccccc3C2=O)cc1
(38) CCOC(=O)c1c(NC(=O)C2=CC(c3cccs3)=NS(=O)(=O)N2C)sc(C)c1C
(39) O=C(COC(=O)c1ccc(Cl)cc1)NC1CCS(=O)(=O)C1 (stereo unspecified)
(40) CCN/C=C(\C#N)S(=O)(=O)c1ccc(Br)cc1
(41) CN(CCO)c1nc(N)c2c(N)nc3c(c2c1C#N)CC(=O)N3C1CCCC1
(42) O=S(=O)(c1ccc(N2CCOCC2)nc1)N(Cc1ccccn1)Cc1ccccn1

screen / no.,37,38,39,40,41,42
Ab BasE inh,0.9,1.1,-0.2,·,1.2,1.5
LANA-nucl inh,·,-0.77,·,0.37,·,·

(43) O=C(CSc1ncn[nH]1)CSc1ncn[nH]1
(44) CC(C)(C)C(=O)Nc1nnc(SCc2ccc(Cl)cc2Cl)s1
(45) N#Cc1ccccc1Nc1ccnc(C(F)(F)F)c1
(46) COc1cc(C(=O)NCc2nnc(SCC(=O)Nc3cc(C)on3)o2)cc(OC)c1OC
(47) Oc1ccc2ccccc2c1CN1CCCC1
(48) CC(C)NC(=S)NN=C1CCCCC1

screen / no.,43,44,45,46,47,48
Ab BasE inh,-1.1,2.4,·,1.2,0.7,-0.7
LANA-nucl inh,-0.03,·,-0.35,0.94,-0.68,·

(49) COc1ccc(N=Cc2c(N3CCCC3)nc3c(C)cccn3c2=O)cc1
(50) O=S(=O)(c1cccs1)N1CN(Cc2ccccc2)c2nc3ccccc3nc21
(51) CCOc1nc2cccc(C(=O)O)c2n1Cc1ccc(-c2ccccc2-c2nn[nH]n2)cc1
(52) C/C(=N\OCc1ccc(C#N)cc1)c1ccc2c(c1)OCCO2
(53) S=C1NCN(Cc2ccccc2)CN1CC1CCCO1 (stereo unspecified)
(54) CC1(C)Cc2cccc(OCCNC(=O)c3cnccn3)c2O1

screen / no.,49,50,51,52,53,54
Ab BasE inh,2.1,1.2,·,0.2,-4.2,0.6
LANA-nucl inh,·,-0.096,0.17,·,·,-1.3

(55) CN(C)S(=O)(=O)c1ccc(C(=O)OCc2ccccc2F)cc1
(56) CCOCCC(=O)N1CCN(c2ccccc2)CC1
(57) O=C(Cn1ccccc1=S)c1ccccc1
(58) c1ccc(-c2nn3c(CN4CCCC4)nnc3c3ccccc23)cc1
(59) CCOC(=O)c1ccc(CC2S/C(=N/N=C/c3ccc(O)cc3)NC2=O)cc1 (stereo unspecified)
(60) N#CCn1c(COC(=O)c2cn(-c3ccccc3)nc2-c2ccc(F)cc2)nc2ccccc2c1=O

screen / no.,55,56,57,58,59,60
Ab BasE inh,2.0,-1.0,0.8,1.3,6.0,2.3
LANA-nucl inh,·,-0.35,0.19,-0.2,-0.22,·

(61) CCOC(=O)C1CCN(C(=O)c2cn(-c3ccccc3)nc2-c2cccnc2)CC1
(62) Cc1ccc(N2C(=O)C(Cc3ccccc3)N=C2N2CCC(C)CC2)cc1 (stereo unspecified)
(63) O=C(NCC(O)c1ccccc1)Nc1ccccc1 (stereo unspecified)
(64) CCN(Cc1ccc(OC)c(F)c1)C(=O)c1ccccc1-n1cnnn1
(65) CN(C(=O)CSc1nnc(-c2cccs2)o1)C1CCCCC1
(66) CN(C)/C=C/C(=O)c1cc(F)cc(F)c1O

screen / no.,61,62,63,64,65,66
Ab BasE inh,0.9,0.1,-2.0,-0.7,-4.1,1.8
LANA-nucl inh,·,0.28,·,·,·,0.21

(67) Nc1cc(=O)[nH]c(SCCOc2ccccc2)n1
(68) Cc1cc(C(=O)N=c2sccn2Cc2ccc(Cl)cc2Cl)on1
(69) CCOc1nc2cccnc2n(Cc2cc(=O)n3ccccc3n2)c1=O
(70) O=C(CSc1nn2c(=O)cnnc2s1)N1CCc2ccccc21
(71) CC(C)(C)NC(=O)CCCN1C(=O)/C(=C\c2ccco2)SC1=S
(72) Cc1[nH]nc2c1C(c1ccco1)N(C)C2=O (stereo unspecified)

screen / no.,67,68,69,70,71,72
Ab BasE inh,0.5,-2.7,-2.6,0.1,-2.4,2.5
LANA-nucl inh,-1.2,·,-1,-1.7,0.11,-1.6

(73) CCc1nnc(NC(=O)c2ccc(S(=O)(=O)N3CCc4ccccc4C3)cc2)s1
(74) COC(=O)c1ccc(Oc2ccc(Cl)cc2)nc1
(75) COC(=O)c1cc(NC(=O)c2cccc(Cl)c2)cc(C(=O)OC)c1
(76) O=C(CCCN1C(=O)S/C(=C\C=C\c2ccccc2)C1=O)Nc1ccc(C(=O)O)cc1
(77) FC(F)(F)c1cccc(-c2nnc(-c3ccc(Cl)cc3)o2)c1
(78) CC1=NN2C(=N)/C(=C/c3cn(CCOc4c(C)cccc4C)c4ccccc34)C(=O)N=C2S1

screen / no.,73,74,75,76,77,78
Ab BasE inh,-1.5,0.7,0.4,0.2,2.4,0.8
LANA-nucl inh,-0.073,-0.063,·,·,-0.65,·

(79) Cc1ccc(S(=O)(=O)N(C)S(=O)(=O)c2cccc(C(F)(F)F)c2)cc1
(80) Cc1ccc(/C(O)=C2\C(=O)C(=O)N3c4ccccc4OC(=O)C23O)cc1 (stereo unspecified)
(81) Cc1oc(S(=O)(=O)N2CCCC2)cc1-c1nc(-c2ccc(F)cc2)no1
(82) O=C(OCN1C(=O)c2ccccc2C1=O)c1cccnc1SC(F)F
(83) CCN1CN=C(SCc2cccc(C#N)c2)NC1
(84) CCOC(=O)N/N=C1/c2ccccc2C2(O)NC(=O)NC12O (stereo unspecified)

screen / no.,79,80,81,82,83,84
Ab BasE inh,1.2,0.5,-1.7,2.0,2.7,-0.7
LANA-nucl inh,·,0.007,·,·,·,-0.43

# A second format for part of the listing above.
item	Molecule	Ab BasE inh	LANA-nucl inh
79	Cc1ccc(S(=O)(=O)N(C)S(=O)(=O)c2cccc(C(F)(F)F)c2)cc1	1.2	·
80	Cc1ccc(/C(O)=C2\C(=O)C(=O)N3c4ccccc4OC(=O)C23O)cc1 (stereo unspecified)	0.5	0.007

# (listing goes on)
(85) COc1cccc(OC)c1SC
(86) O=C(CCCc1nc2ccccc2s1)Oc1ccc2c(c1)OCO2
(87) CC1=NN(c2ccccc2)C(=O)C1=C1SCCS1
(88) C=CCN(c1ccc(C(=O)N2CCCC2)cc1)S(C)(=O)=O
(89) Cc1cn([C@H]2C=C[C@@H](CO)O2)c(=O)[nH]c1=O
(90) Cc1cccc(N2CCN(C(=O)CCCN3C(=O)c4ccccc4Sc4ncccc43)CC2)c1C

screen / no.,85,86,87,88,89,90
Ab BasE inh,0.8,1.8,2.4,1.7,·,0.3
LANA-nucl inh,·,·,0.64,-0.81,0.21,0.49

(91) C(=N\NC1=NCCCCC1)/c1ccccc1
(92) CC(=O)Nc1cc2nc(N)sc2cc1NC(C)=O
(93) O=C1Nc2ccccc2Oc2ccc(S(=O)(=O)N3CCOCC3)cc21
(94) COC(=O)c1cc(-c2ccco2)nc2c1cnn2Cc1ccc2c(c1)OCO2
(95) O=C(O)CC1(CC(=O)Nc2ccc(-c3cn4c(n3)SCC4)cc2)CCCCC1
(96) Cc1ccc2nc(-c3cc(Cl)ccc3NC(=O)CCC(=O)O)c(=O)[nH]c2c1

screen / no.,91,92,93,94,95,96
Ab BasE inh,-0.2,0.9,0.6,0.9,-1.1,-0.7
LANA-nucl inh,·,·,0.31,·,0.9,·

(97) CC(C)C1OC(N)=NC1=O (stereo unspecified)
(98) Nc1nc(N)nc(SCC(=O)N(C2=CCCCC2)C2CC2)n1
(99) CC1CCC(C(C)C)C(=O)/C1=C\c1ccc(NC(=O)CCC(=O)O)cc1 (stereo unspecified)
(100) O=C1CCC/C(=N/NC(=O)c2cc(NS(=O)(=O)c3cccs3)cc(NS(=O)(=O)c3cccs3)c2)C1
(101) COc1nc2c(c(=O)n(C)c(=O)n2C)n1C
(102) CNc1sc(C(=O)c2cccs2)c(N)c1-c1nc2ccccc2s1

screen / no.,97,98,99,100,101,102
Ab BasE inh,1.6,0.2,-0.2,-2.7,1.9,1.1
LANA-nucl inh,·,·,·,·,·,·

(103) CN(CC(=O)Nc1ccc(OC(F)(F)F)cc1)C(=O)c1ccc(N2CCCC2=O)cc1
(104) CC1=CC(C)(C)N(C(C)C)C(=O)N1c1ccc(C)cc1
(105) O=C(O)c1ccc(S(=O)(=O)c2ccc3c(c2)C(=O)N(C2CCCCC2)C3=O)cc1
(106) C=CCn1c2ccccc2n2cc(-c3ccccc3)nc12
(107) C=CCOc1ccc(CNCc2ccco2)cc1OC
(108) COc1ccc(CCN2CCCn3c2nc2c3c(=O)n(CC(N)=O)c(=O)n2C)cc1OC

screen / no.,103,104,105,106,107,108
Ab BasE inh,2.3,3.0,0.2,2.8,-0.6,-0.4
LANA-nucl inh,·,·,-0.77,·,-1.8,-0.9
